HIV Env fusion: HIV envelope-mediated fusion inhibition | HeLa-JRFL Env/CEM21 cell fusion, luciferase | actives 1.1% (n = 360,000) | inhibition, % at 12.3 µM;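 active = mean replicate inhibition score of at least 50 and every replicate individually at or above 50; inconclusive = only one of the two criteria met; inactive = mean below 50 and not all replicates reaching 50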;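 note: 0% = plate neutral controls and 100% = maraviroc near 300 nM; one replicate is shown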
Rce1 inhib: yeast Ras-converting enzyme inhibition | Q03530 | yeast membranes, quenched prenylated peptide cleavage fluorescence | calls only | actives 0.27% (n = 290,000) | AID 2563;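 active = fall in fluorescence gain of 50% or more versus controls, with final raw signal at or below 3038400; inconclusive = same 50% fall but final raw signal above 3038400; inactive = fall in fluorescence gain under 50%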;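 note: plate controls were neutral control wells for no effect and wells lacking membranes for full effect; tested at 10 µM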
Target sequence (Q03530 whole entry, looked up): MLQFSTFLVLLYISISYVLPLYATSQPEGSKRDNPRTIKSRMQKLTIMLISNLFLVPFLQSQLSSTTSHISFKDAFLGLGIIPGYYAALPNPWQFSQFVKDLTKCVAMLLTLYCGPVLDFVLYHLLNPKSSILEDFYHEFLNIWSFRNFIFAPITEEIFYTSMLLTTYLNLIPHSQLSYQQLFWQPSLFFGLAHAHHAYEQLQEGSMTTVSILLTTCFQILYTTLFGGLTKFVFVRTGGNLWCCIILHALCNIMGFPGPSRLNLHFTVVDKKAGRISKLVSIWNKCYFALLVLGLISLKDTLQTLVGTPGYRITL
PABP polyA inh: PABP-poly(A) binding inhibition; inhibition, % at 35 µM; PABP-poly(A) RNA binding, fluorescence polarization; AID 2014; actives 1% (n = 290,000); P11940;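 active = 50% or more with normal probe brightness, or confirmed in later tests; inconclusive = above 50% with abnormal brightness, or retests that disagree; inactive = below 50% or failed in later tests; about a fifth of its hits are not listed in these tables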;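 note: calls also rest on retests at 20 µM and on dose response follow-up; controls were probe without protein and protein plus probe with vehicle; some compounds called inactive have numbers as strong as hits; many hits fall short of the cut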
Target sequence (P11940 whole entry, looked up): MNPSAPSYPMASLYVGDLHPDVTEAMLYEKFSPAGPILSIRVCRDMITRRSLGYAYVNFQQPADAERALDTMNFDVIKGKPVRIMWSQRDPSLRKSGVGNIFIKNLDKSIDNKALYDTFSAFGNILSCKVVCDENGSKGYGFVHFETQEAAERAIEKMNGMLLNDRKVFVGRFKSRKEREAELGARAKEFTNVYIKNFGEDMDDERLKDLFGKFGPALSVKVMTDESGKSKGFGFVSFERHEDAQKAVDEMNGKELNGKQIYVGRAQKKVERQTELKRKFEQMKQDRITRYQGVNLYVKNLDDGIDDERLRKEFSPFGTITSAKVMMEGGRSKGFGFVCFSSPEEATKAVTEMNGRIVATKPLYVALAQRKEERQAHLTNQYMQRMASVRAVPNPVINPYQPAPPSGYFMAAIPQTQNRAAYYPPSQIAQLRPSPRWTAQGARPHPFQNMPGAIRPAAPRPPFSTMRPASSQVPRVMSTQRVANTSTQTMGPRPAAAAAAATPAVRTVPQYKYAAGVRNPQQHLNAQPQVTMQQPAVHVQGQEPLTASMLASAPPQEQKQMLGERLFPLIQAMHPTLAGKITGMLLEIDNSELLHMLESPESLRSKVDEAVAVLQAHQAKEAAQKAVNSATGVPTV
eIF4H FP inh: inhibitors of RNA binding by human eIF4H; Q15056; eIF4H fluorescence polarization binding assay; inhibition, % at 35 µM; actives 0.94% (n = 290,000);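 active = 50% or more with normal probe brightness, or confirmed in later tests; inconclusive = above 50% with abnormal brightness, or retests that disagree; inactive = below 50% or failed in later tests; about a fifth of its hits are not listed in these tables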;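 note: calls also rest on retests at 20 µM and on dose response follow-up; 0% = protein and probe with vehicle and 100% = probe without protein; strong numbers were not always called active; many hits fall short of the cut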
CSC inhib: blocks cancer stem cells; cancer stem cell-like cells viability, luminescence; inhibition, % at 7.5 µM; actives 1.1% (n = 300,000);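 active = mean at 75% or more and at least half the replicates too; inconclusive = mean and replicates disagree; tested in HMLE shEcad cells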;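 note: 0% = median of negative and 100% = median of positive control wells; the first replicate is given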
Yeast UUG start: yeast start codon fidelity modulation; S. cerevisiae UUG-firefly luciferase reporter, luminescence/redox ratio; activity score, % at 18.7 µM; actives 0.13% (n = 350,000);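 active = replicate mean at a twofold rise or more, about +100% in these data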;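 note: firefly luciferase made from a UUG start codon reports start codon fidelity; reporter light over untreated wells divided by growth signal over untreated wells; some hits fall short of that in this replicate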
MT1-MMP act inh: MT1-MMP (human) activation inhibition; P50281; HT1080 RFP-PRO-GFP cells, GFP/RFP ratio fluorescence, overnight; percent of plate control window, DMSO zero; GFP/RFP ratio change, % at 20 µM; actives 0.061% (n = 360,000); AID 651647;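 active = GFP/RFP ratio change of at least 30% with cell ATP level not reduced by more than half and red fluorescence within 50% of control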; note: strong numbers were not always called active
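Material – HT1080 RFP-PRO-GFP cells · Control set – DMSO wells and RFP-L50D-GFP cells · Incubation – overnight cell settling, then overnight compound exposure, 37 °C, 5% CO2 · Compound dosing – single-point 20 µM compound, 1% DMSO · Read-out – GFP/RFP fluorescence ratio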
MT1-MMP act inh RFP: also measured in MT1-MMP act inh; calls as there; RFP signal change, %; measured here: RFP expression control read;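 0 = vehicle wells; hits needed this value within 50% of zero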
Numbers without * were called inactive; i = inactive; ? = inconclusive; · = not tested or not shown; & = joins results of further samples; [ ] = remark or other dose. An excerpt; the hit share may differ from the screen's.

SMILES	HIV Env fusion	Rce1 inhib	PABP polyA inh	eIF4H FP inh	CSC inhib	Yeast UUG start	MT1-MMP act inh	MT1-MMP act inh RFP
NC(=S)N/N=C/c1ccc(-c2ccc(SC(F)F)cc2)o1	-34	i	6	4	43	-21	-9	-4
COc1ccc(S(=O)(=O)N(C)C[C@H]2Oc3c(NC(=O)Nc4c(C)noc4C)cccc3C(=O)N([C@H](C)CO)C[C@@H]2C)cc1	14[16.7 µM]	·	·	·	-4	22&7	-13	-7
Cc1ccc(CNC(=O)c2ccc(N3CCC4(CC3)CC(c3ccccc3)=NO4)c(N)c2)cc1	6	i	-6	7	16	-7	7	-5
S=c1[nH]nc(-c2ccccn2)n1/N=C/c1cccs1	-19	i	7	8	1	·	4	7
CCCc1cc(=O)[nH]c(SCC(=O)Nc2sc3c(c2C(N)=O)CCCC3)n1	14	·	·	·	23	·	3	2
CCCCN(C)Cc1c(O)ccc2c(=O)c(-c3ccccc3OC)coc12	5	i	0	-5	-4	-23	3	1
O=C(Nc1ccc2c(c1)CCCN2C(=O)c1cccs1)c1cccc(F)c1	-12	i	4	-10	12	-22	0	-1
COc1ccc(CCN2Cc3c(N)cccc3C2=O)cc1OC	14	i	4	-11	-9	-17	1	3
Cc1c(C(c2ccc(N(C)C)cc2)c2c(C)n(C)n(-c3ccccc3)c2=O)c(=O)n(-c2ccccc2)n1C	2	i	4	9	2	·	24	3
Cc1cc(/C=N/NC(=O)C(=O)NCc2ccccn2)c(C)n1-c1ccccc1	7	i	-12	-2	7	-24	2	4
O=C(COC(=O)c1ccc([N+](=O)[O-])o1)Nc1nc2ccccc2s1	23	i	20	7	3	3	-3	-2
Cc1ccc(NS(=O)(=O)c2ccc(/C=C/C(=O)O)cc2)cc1Cl	-1	i	-6	6	-1	·	0	2
Cc1ccc(NC(=S)Nn2cnnc2)c(C)c1	19	i	-1	4	-9	-22	-11	-4
O=C(Nc1nnc([C@H]2C[C@H](O)[C@@H](CO)O2)s1)NC(c1ccccc1)c1ccccc1	2	·	·	·	·	-7	0	0
Cn1c(COc2ccccc2)nnc1SCCC(=O)Nc1ccccc1	·	i	2	-3	2	-17	4	6
COc1ccccc1CCC(=O)Nc1nc2ccccc2[nH]1	-85	i	5	-5	8	-21	-6	-7
Cc1n[nH]c(=O)c2c(NC(=O)CSc3nn(-c4ccc(F)cc4)c(=S)s3)oc(C)c12	-5	i	·	·	-6	-20	-6	4
Cc1ccc(S(=O)(=O)N(C)C(C)CCc2ccco2)cc1 (configuration not stated)	·	·	·	·	-20	0	-2	-9
COc1cc(/C=N/NC(=O)CNC(=O)/C=C/c2ccco2)cc(OC)c1OC	-7	i	18	-2	-12	-7	7	3
Cc1ccc2nc(SCC(=O)Nc3ccc4c(c3)OCCO4)[nH]c2c1	-10	i	6	-3	-2	-42	0	-1
COc1ccc(S(=O)(=O)N2CCCc3ccccc32)cc1OC	-145	i	-2	-1	26	-8	-4	0
CN1c2ccccc2C(=O)NC1c1ccc(Cl)cc1 (configuration not stated)	13	i	-3	2	-8	·	0	-2
Cc1cc(-n2c(SCC(=O)Nc3ccc(Br)cc3)nc3n[nH]c(C)c3c2=N)ccc1Cl	10	i	2	-6	56	-10	3	-2
CC(NC(=O)CSc1nc2ccccc2n1CCC#N)c1ccc(F)cc1 (configuration not stated)	·	i	13	0	-9	-7	-3	2
COc1cc(OC)cc(C(=O)N[C@H](C(=O)OCC(=O)Nc2ccc3c(c2)OCO3)C(C)C)c1	-16	·	·	·	-7	25	-6	-3
OC(COc1cccc2ccccc12)CN1CCN(c2cccc(Cl)c2)CC1 (configuration not stated)	6	i	-4	7	36	11	1	4
Oc1ccc(/C=N/Nc2nc(N3CCCCCC3)nc(N3CCCCCC3)n2)c(O)c1	-76	i	-16	3	·	·	4	-16
O=C(O)/C=C/C(=O)Nc1ccc(OC(F)(F)F)cc1	5	i	-3	2	-10	-13	2	3
C[C@@H]1CN([C@@H](C)CO)C(=O)CCCn2nncc2CO[C@H]1CN(C)Cc1ccc(Oc2ccccc2)cc1	6	·	·	·	·	-14&-3	-3	-1
Cn1c(C(=O)N2CCCCCC2)cc2c(=O)n(C)c3ccccc3c21	-8	i	-2	-3	6	-1	6	3
Cc1cnc(C(=O)N2CCCC(N3CCN(c4ccccc4C)CC3)C2)cn1 (configuration not stated)	-29	i	-8	-1	-4	-4	-2	4
COc1ccc(OC)c(N2C(=O)C(Cl)=C(N3CCCCC3)C2=O)c1	-1	i	-8	-4	1	·	-2	3
COc1ccc2oc(=N)c(C(=O)Nc3ccccc3)cc2c1	·	·	-9	-6	13	3	-1	2
Cc1csc(NC(=O)CCc2nc3ccccc3s2)n1	16	i	16	18	5	-4	1	3
CCOC(=O)C1CCN(Cc2c(C(=O)N3CCOCC3)nc3c(C)cccn23)CC1	8	i	-1	2	5	-1	-1	-3
CC1Cc2ccccc2N1C(=O)CSc1nnnn1Cc1ccccc1 (configuration not stated)	-45	i	1	0	-8	-22	1	-1
CCOC(=O)N1CCN(S(=O)(=O)c2ccc3c(c2)C(C)C(=O)N3)CC1 (configuration not stated)	·	·	·	·	10	-22	4	5
O=C(Cn1nnc2c(sc3nc4c(c(-c5ccccc5)c32)CCC4)c1=O)c1ccccc1	·	i	5	-3	73	-1	-8	-5
CCCC(=O)NCCc1ccc(F)cc1	-21	i	-13	0	-24	-2	0	7
CCN(CC)S(=O)(=O)c1ccc(OC)c(NC(=O)c2cc([N+](=O)[O-])ccc2N2CCOCC2)c1	67*	·	·	·	·	-13	-5	-3
CC(=O)c1cccc(NC(=O)NCc2cccnc2)c1	·	i	-3	1	-8	-2	-1	3
CC1CCN(C(=O)CN(c2ccccc2)S(=O)(=O)N(C)C)CC1	37	i	-4	-1	-15	·	-6	2
Cc1cc(C)nc(SCC(=O)Nc2nc(-c3ccccc3)c(-c3ccccc3)o2)n1	10	i	5	5	-4	-12	0	0
C[C@@H](CSc1ccc(Br)cc1)CN1CC[C@H](O)CCC1=O	-7	·	·	·	-19	0	3	-8
COc1ccc(NC(=O)CN(C)C(=O)/C=C/c2cn(Cc3ccccc3)nc2-c2cccnc2)cc1	·	i	·	·	-4	-7	2	2
O=c1[nH]c(CSc2ncccn2)nc2c1cnn2-c1ccccc1	-2	i	6	6	-1	-19	0	-3
CC(NS(=O)(=O)c1ccc(Br)cc1)C(N)=O (configuration not stated)	0	i	1	9	-13	3	1	3
Cc1ccc(S(=O)(=O)N2CCN(C3CC(=O)N(Cc4ccccc4)C3=O)CC2)cc1C (configuration not stated)	·	i	3	-6	6	-10	0	-2
CC(=O)N1CCN(C(=O)c2ccc(Cl)c(S(=O)(=O)N3CC(C)OC(C)C3)c2)CC1 (configuration not stated)	-9	·	·	·	-16	-13	-3	-4
CC(/C=C1\SC(=S)N(NS(=O)(=O)c2ccc(C)cc2)C1=O)=C\c1ccccc1	8	i	13	3	29	-20	2	3
CCOc1ccc(CCNC(=O)CS(=O)Cc2nc(-c3ccc(OC)c(OC)c3)oc2C)cc1OCC (configuration not stated)	6	i	-3	-4	-4	-2	-1	1
COc1cccc2cc(-c3nnc(SCC(=O)Nc4cc(C(F)(F)F)ccc4Cl)n3N)oc12	-4	i	-2	7	10	-7	0	0
CCc1cccc(C)c1NC(=O)Nc1c(Br)cnn1C	·	i	-5	-9	·	-18	1	2
CCCC1C2C(=O)N(c3ccc(OC)cc3)C(=O)C2ON1c1ccccc1 (configuration not stated)	9	i	-4	-8	0	·	5	7
CCc1ccccc1NC(=S)Nn1cnnc1	14	i	-8	-9	3	-22	-4	0
CN(C)/C=C/C(=O)c1ccccc1OCc1cnc(Cl)s1	13	i	-12	-8	-16	·	-28	2
COc1ccc(NC(=O)Cn2c(=O)oc3cc(S(=O)(=O)N4CCCC4)ccc32)cc1	-2	i	-13	7	10	-17	0	-1
COc1ccc(C)cc1NC(=O)CCC(=O)Nc1nnc(C(F)(F)F)s1	-54	i	-7	-8	6	·	0	1
CNS(=O)(=O)c1cccc(C(=O)NNC(=O)c2ccc(COc3ccccc3)cc2)c1	-4	·	2	-5	-5	-3	2	-8
CC1(C(=O)NS(=O)(=O)c2ccc3c(c2)CCO3)CCN1C(=O)Cc1ccc(-c2ccccc2)cc1 (configuration not stated)	11	·	·	·	·	10	6	9

(cont.)
SMILES	HIV Env fusion	Rce1 inhib	PABP polyA inh	eIF4H FP inh	CSC inhib	Yeast UUG start	MT1-MMP act inh	MT1-MMP act inh RFP
Cn1c(SC(C(=O)Nc2ccc(F)cc2)c2ccccc2)nc2ccccc21 (configuration not stated)	18	i	-3	8	27	-18	-12	-7
COC(=O)/C=C/C(=O)Nc1ccc(O)c(Cl)c1	-5	i	-2	7	4	·	0	0
CC(=O)c1cccc(CN2CCCC(C(=O)c3ccc4c(c3)OCO4)C2)c1 (configuration not stated)	-15	i	10	-8	1	·	1	1
CN(Cc1ccc(C(F)(F)F)cc1)C(=O)[C@H]1O[C@@H](n2ccc(=O)[nH]c2=O)[C@H](O)[C@@H]1O	14	·	·	·	·	-8	3	2
CCCCNC(=O)c1ccc(Cn2c(=S)[nH]c3c([nH]c4ccc(OC)cc43)c2=O)cc1	-14	i	-6	-8	140*	·	-3	-6
O=C(O)c1ccc(CNCc2ccc(Cl)cc2Cl)cc1	·	i	8	-12	-12	-21	2	6
Nc1nc(SCc2cccc(Br)c2)n[nH]1	19	i	-2	-4	·	-16	6	3
Cc1ccc(NC(=O)Cn2c(=O)n(CCCC(=O)NCc3ccco3)c(=O)c3ccccc32)cc1	·	i	2	-8	-9	22	-5	-10
CCN(CC)S(=O)(=O)c1ccc(N2CCOCC2)c(NC(=O)C2=COCCO2)c1	·	i	-10	-7	·	-19	2	3
Cn1c(SCC(=O)N2CCCc3ccccc32)nc2cccnc21	15	i	-2	-2	-18	2	-5	-10
CCN1CCN(Cc2ccc(NC(=O)c3cc(NC(=O)c4cc(-c5ccc(OC)cc5)n[nH]4)cc(OC)c3)cc2C(F)(F)F)CC1	12	i	-24	-9	?	-13	11	1
ON=C(CCc1ccccc1)c1ccccc1	-37	·	·	·	·	-6	1	-1
Cc1ccccc1N1C(=O)C(Oc2ccc(Cl)cc2)C1CNCC1CCCO1 (configuration not stated)	-6	i	-2	0	-1	·	1	2
CCc1cccc2c(C(=S)N3CCOCC3)c[nH]c12	1	i	-5	11	·	·	2	1
Cc1ccc(NS(=O)(=O)c2ccc(NC(=O)CN(c3cc([N+](=O)[O-])ccc3C)S(C)(=O)=O)cc2)c(C)c1	19	i	-2	-9	-5	-10	-17	-25
CCCCC[C@@H]1C=C(C(=O)O)[C@H](c2ccc3c(c2)OCO3)N1S(=O)(=O)c1ccc(C)cc1	-33	·	·	·	·	-7	5	2
CCN(C[C@H]1N[C@@](CC)(C(=O)OC)[C@H]2C(=O)N(Cc3ccccc3)C(=O)[C@@H]12)C(=O)Nc1ccc(Cl)cc1	86*	·	·	·	·	4	-1	-4
O=C(CS(=O)(=O)Cc1ccccc1)Nc1ccccn1	·	i	5	-7	-7	-16	8	5
COc1ccc(C(=O)CSc2nc(-c3ccccn3)nc(C)c2Cl)cc1	10	i	11	0	-10	-26	3	-1
CCN(CC(=O)NCc1ccc(F)cc1)C(=O)/C=C/c1ccco1	-3	i	-2	0	-8	·	-3	-1
CCNc1nc(NC(C)C)nc(Oc2ccc(OCc3ccccc3)nn2)n1	-18	i	-1	2	4	-5	6	-3

Screens deposited in PubChem by several laboratories.
